High-throughput results deposited in PubChem BioAssay by National Center for Advancing Translational Sciences (NCATS).
Resorufin fluor = compound fluoresces in the resorufin spectral region | Compound fluorescence, resorufin region 547/598 nm, buffer; active compounds read high | max dye-equivalent concentration, M | 59,000 compounds, 0.04% hits | AID 588; active = above 10 nM dye equivalent; inconclusive = 1 to 10 nM; inactive = 1 nM or less; a few of its hits are not listed in these tables; further: highest value over a series up to 38 µM
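Intrinsic fluorescence profiled in the resorufin window (ex 547 nm, em 598 nm) after 15 min at room temperature in pH 8.0 Tris buffer (100 mM); responses normalized against a six-point resorufin standard series as dye-equivalent concentration.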
AID923 = qHTS Assay for Allosteric/Competitive Inhibitors of Caspase-1: Spectroscopic Profiling in AFC Spectral Region | compound fluorescence, AFC spectral region (405/520 nm); almost no hit is shown here | AID 923, 2007 | 75,000 compounds, 1.1% hits | Potency, µM (highest dose often 57.5 µM), inactives show at the highest dose fluorescence increase, usual class: activators; active means well fitted activation curve with a large enough effect; inconclusive means small, poorly fitted or top-dose-only effect;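 further: potency means the concentration at half of the fitted maximal effect; 0% is about no effect; scaled to a free AFC standard on each plate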
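Titrations up to 57 uM read every 20 sec for 3 min (405/520 nm) with 50 nM caspase 1 and 5 uM Ac-WEHD-AFC, pH 7.5 HEPES buffer. Fluorescence-vs-time intercept gave baseline, scaled against on-plate AFC standard.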
TSHR ag = activates the human thyroid stimulating hormone receptor; HEK293-CNG-TSHR cells (CNG channel as cAMP sensor), membrane potential dye, cAMP; Potency, µM (highest dose often 57.1 µM), for inactives: at the top dose activation, usual class: activators; 73,000 compounds, 0.48% hits; AID 926; active = well fitted activation curve of enough size with the parental cells flat; inconclusive = any curve in the parental cells; inactive = parental cells flat and receptor cells flat or falling; further: potency means the concentration at half of the fitted maximal effect; % of control where 0% means no effect; weak receptor curves with flat parental cells got no call and are not listed
Target sequence (P16473 whole entry, looked up): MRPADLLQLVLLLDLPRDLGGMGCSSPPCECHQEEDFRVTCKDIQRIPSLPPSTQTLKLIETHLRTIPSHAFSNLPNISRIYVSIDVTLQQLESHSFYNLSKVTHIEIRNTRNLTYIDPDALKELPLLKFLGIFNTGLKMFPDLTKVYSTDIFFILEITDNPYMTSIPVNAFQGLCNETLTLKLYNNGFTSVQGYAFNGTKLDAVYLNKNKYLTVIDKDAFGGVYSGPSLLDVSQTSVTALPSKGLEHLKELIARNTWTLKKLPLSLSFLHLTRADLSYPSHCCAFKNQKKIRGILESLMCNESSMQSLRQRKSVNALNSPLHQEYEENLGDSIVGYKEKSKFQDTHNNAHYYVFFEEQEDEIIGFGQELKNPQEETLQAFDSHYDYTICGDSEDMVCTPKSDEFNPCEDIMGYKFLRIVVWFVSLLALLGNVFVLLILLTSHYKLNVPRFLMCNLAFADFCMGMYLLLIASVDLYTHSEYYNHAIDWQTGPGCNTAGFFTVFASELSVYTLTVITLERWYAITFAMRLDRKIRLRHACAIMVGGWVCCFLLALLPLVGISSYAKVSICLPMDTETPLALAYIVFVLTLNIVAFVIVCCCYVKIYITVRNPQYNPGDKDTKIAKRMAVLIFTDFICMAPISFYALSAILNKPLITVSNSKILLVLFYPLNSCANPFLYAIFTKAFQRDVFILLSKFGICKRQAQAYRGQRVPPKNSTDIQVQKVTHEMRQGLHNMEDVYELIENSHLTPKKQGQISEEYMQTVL
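HEK 293 cells stably expressing TSHR and a modified CNG channel, with CNG-only parental cells as counterscreen, were preloaded 60 min at room temperature with membrane potential dye containing 100 uM RO 20-1724. Compound exposure was 30 min, and depolarization was read as fluorescence at 590 nm.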
A647 autofl = compound fluoresces in the A647 spectral region; Compound fluorescence, A647 channel (570/671 nm), Tris buffer; max dye-equivalent concentration, M; 59,000 tested, under 10 active; active means above 1 µM dye equivalent; inconclusive means 0.1 to 1 µM; inactive means 0.1 µM or less;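 further: values scaled relative to a standard on each plate; highest value over a series up to 38 µM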
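Tris 100 mM pH 8.0; cpd + A647 stds pin-transferred; 15 min RT; CCD imager, ex 570/em 671. Output = A647-equivalent conc. per cpd conc.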
A488 autofl = A488 region autofluorescence; compound autofluorescence, A488 spectral region, dye equivalency; active compounds read high; max dye equivalency, M; 59,000 compounds, 0.1% hits; active = above 10 nM dye equivalent; inconclusive = 1 to 10 nM; inactive = 1 nM or less; about half of its hits are not listed in these tables;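 further: highest value over a series up to 38 µM; compound alone in buffer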
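Intrinsic compound fluorescence is measured in 100 mM Tris buffer at pH 8.0 following 15 min incubation at room temperature. Intensities at 480 nm excitation/540 nm emission are calibrated to an on-plate A488 concentration series, giving dye-equivalent concentrations.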
* marks the source's active call; other numbers are inactive results; i = inactive; u = inconclusive; x = no result given; & = joins results of further samples; [ ] = another dose, or the depositor's remark. This is a subset (hit frequency here may not be typical).

Each structure is followed by: Resorufin fluor	AID923	TSHR ag	A647 autofl	A488 autofl
1	O=C(NC1CCCCC1)C1CCCN(S(=O)(=O)c2cccs2)C1 (centres undefined)
  i	0.2%	2%	1e-09	i
2	COc1ccccc1Nc1nc(N)nc(CN2CCC(Cc3ccccc3)CC2)n1
  i	0.4%	-10%	6.3e-09	i
3	Cn1c(=O)c2c(nc(CN3CCN(c4ccccc4)CC3)n2Cc2ccccc2Cl)n(C)c1=O
  i	-0.4%	21%	8.7e-09	i
4	Cc1ccc(-n2nc3c(c2NC(=O)c2ccc4c(c2)OCO4)CSC3)cc1
  i	2.3%	x	4.5e-09	i
5	O=C(NC12CC3CC(CC(C3)C1)C2)N1CCC(n2nnc3ccccc32)CC1
  i	0.0%	12%	2e-08	i
6	COC(=O)Cn1ncc2c3ccccc3n(C)c2c1=O
  x	0.9%	3%	x	x
7	Cc1cc(C)nc(-n2nc(C)cc2NC(=O)c2cccc(S(=O)(=O)N(C)C)c2)n1
  i	3.2%	0%	5e-09	i
8	CCOC(=O)c1sc(NC(C)=O)c(C(=O)OCC)c1C
  i	0.1%	x	7.1e-09	i
9	FC(F)(F)c1cc(CN2CCCC3(CCNCC3)C2)cc(C(F)(F)F)c1
  i	0.8%	-14%	2.6e-09	i
10	CCOC(=O)c1cnn2c(C)cc(-c3ccccc3)nc12
  i	2.4%	-5%	7.5e-09	i
11	O=C1c2ccccc2S(=O)(=O)N1Cc1nc2ccccc2s1
  i	-1.8%	-3%	2.6e-09	i
12	COc1ccccc1-c1cc(C(=O)N2CCN(c3ccc(F)cc3)CC2)no1
  i	-0.2%	2%[11.4 µM]	1.9e-09	i
13	COc1ccc(CCn2c(C)cc3c(c2=O)C(c2ccncc2)C(C#N)=C(N)O3)cc1OC (centres undefined)
  i	0.7%	-10%	1e-09	i
14	CCOC(=O)N1CCC(NC(=O)c2cc(S(=O)(=O)N3CCc4ccccc43)cn2C)CC1
  i	0.2%	6%	1.3e-08	i
15	CCOc1ccc(CCNS(=O)(=O)c2cccc3nsnc23)cc1OCC
  i	-0.3%	7%	1e-09	i
16	O=C(CCC1=NS(=O)(=O)c2ccccc2N1)NC1CCCCCCC1
  i	0.3%	7%	1e-09	i
17	CN(C)c1nc(N)c(C(=O)N=C(N)N)nc1Cl
  i	-3.0%	u	1.4e-08	i
18	Cc1cc(NS(=O)(=O)Cc2ccccc2)no1
  i	-1.4%	5%	1.6e-08	i
19	O=C(CSc1ncccc1C(=O)O)NCc1ccc(F)cc1
  i	0.7%	0%	1.8e-08	i
20	Cc1cc(=O)n2[nH]c(-c3ccccc3)cc2n1
  i	-2.3%	-10%	3.9e-08	i
21	CCSC1(SCC)N=C(N)C2(C#N)C(c3ccccc3)NC(C)=CC12C#N (centres undefined)
  x	10%	-18%	x	x
22	CCOCC(=O)Nc1ccc(S(=O)(=O)N2CCOCC2)cc1
  i	-2.1%	3%	3.9e-09	i
23	NCCCS(=O)(=O)O
  i	-1.5%&-0.6%	u	2.3e-08	i
24	CCCc1cc(C(=O)Nc2cccc(C(C)=O)c2)no1
  x	-0.8%	10%	x	x
25	Cc1cccc(CNc2cc(-c3c(C)noc3C)ncn2)c1
  i	0.8%	6%	2e-08	i
26	Cn1c2c(c3ccccc31)CC/C2=N\O
  x	-0.2%	6%	x	x
27	O=C(c1csnn1)N1CCC[C@@]2(CCN(Cc3ccccc3)C2)C1
  i	1.8%	u	2e-08	i
28	CCCCn1nnnc1SCC(=O)Nc1cccc(C)n1
  i	1.6%	2%	1.6e-09	i
29	O=C(Nc1ccc(N2CCOCC2)cc1)C1CCN(S(=O)(=O)Cc2ccccc2)CC1
  i	1.1%	2%	3.8e-08	i
30	Cn1ccnc1C(O)c1ccc(OCc2ccccc2)cc1 (centres undefined)
  i	x	x	1e-09	i

Single records (already shown). Values in the order: Resorufin fluor, AID923, TSHR ag, A647 autofl, A488 autofl
`O=C(CCC1=NS(=O)(=O)c2ccccc2N1)NC1CCCCCCC1` reads i, 0.3%, 7%, 1e-09, i
`CCSC1(SCC)N=C(N)C2(C#N)C(c3ccccc3)NC(C)=CC12C#N` (centres undefined) reads x, 10%, -18%, x, x

Carrying on:
Each structure is followed by: Resorufin fluor	AID923	TSHR ag	A647 autofl	A488 autofl
31	COc1ccc(N2C(=O)CCC(C(=O)N3CCCCCC3)C2c2ccc(OC)c(OC)c2)cc1 (centres undefined)
  i	1.0%	0%	3e-08	i
32	CCOC(=O)Cn1c(CCC(=O)O)ccc1-c1ccc(F)cc1
  x	0.0%	2%	x	x
33	CN1CCN(/C=N/c2c(C#N)cnn2Cc2ccccc2)CC1
  i	-0.1%	-6%	3e-09	i
34	NC(=O)SCC(=O)Nc1ccc(Cl)c(Cl)c1
  x	-1.6%	-22%	x	x
35	CCN(CC)CCn1c(=S)[nH]c2ccc(Cl)cc2c1=O
  i	4.6%	x	1e-09	i
36	CC(C)Cn1c(CN2C(=O)c3ccccc3C2=O)nc2ccccc2c1=O
  x	3.1%	-1%	x	x
37	Cc1c(NC(=O)C(C)N2CC(C)OC(C)C2)c(=O)n(-c2ccccc2)n1C (centres undefined)
  i	-0.7%	2%[11.4 µM]	5.7e-09	i
38	CCOC(=O)c1cccc(NC(=O)c2cccnc2)c1
  x	0.8%	16%	x	x
39	CCOc1ncccc1C(=O)OCc1nnc(-c2ccccc2)o1
  i	-0.6%	5%	1.8e-08	i
40	C[C@@]12CC[C@H]3[C@H](CC=C4C[C@@H](O)CC[C@@]43C)[C@@H]1CC[C@@H]2N(CCO)CCO
  i	3.6%[11.5 µM]	0%[11.4 µM]	1.4e-08	i
41	O=C(c1ccco1)N1CCN(C(c2ccc(Cl)cc2)c2nnnn2CC2CCCO2)CC1 (centres undefined)
  i	-1.3%	2%	5e-09	i
42	C/[N+]([O-])=C1\Cc2ccccc2C1=O
  i	1.3%	29%	9.8e-09	i
43	C[C@@H]1C[C@H]2[C@H]3C[C@@H](F)C4=CC(=O)C=C[C@]4(C)[C@@]3(Cl)[C@@H](O)C[C@@]2(C)[C@@H]1C(=O)COC(=O)C(C)(C)C
  i	2.6%[25.7 µM]	-3%[25.6 µM]	3.9e-08	i
44	Cn1cnnc1Sc1nc2c(c(=O)n(C)c(=O)n2C)n1Cc1ccccc1Cl
  i	-3.2%	5%	3.5e-09	i
45	COc1cccc(-c2ccc3ncnc(NCCNC(C)=O)c3c2)c1
  i	-0.3%	25%	1e-09	i
46	CCCCCn1c(SCC2CCCO2)nc2cc(C(=O)N3CCC(C(N)=O)CC3)ccc2c1=O (centres undefined)
  i	-1.0%	-13%	2.1e-08	i
47	CCOC(=O)CSc1nnc(CNC(=O)c2cccs2)n1-c1cc(OC)ccc1OC
  i	1.6%	5%	3.7e-08	i
48	CCOP(C)(=O)C1(C(=O)OCc2ccccc2)CC1 (centres undefined)
  x	-5.1%	3%[11.4 µM]	x	x
49	CN(C)C(CNC(=O)CCCc1c[nH]c2ccccc12)c1ccco1 (centres undefined)
  i	0.9%	-4%	4.4e-08	i
50	Cc1ccsc1C=Nc1c(C)n(C)n(-c2ccccc2)c1=O
  i	-2.6%	6%	9.6e-09	i
51	O=C(O)c1ccc(CSCc2ccco2)cc1
  x	1.0%	u	x	x
52	CC(C1CC1)N(C(=O)c1ccccc1O)c1ccccc1 (centres undefined)
  x	3.2%	6%	x	x
53	Cc1ccc(CN2CCN(CC(=O)NCc3ccc(Cl)cc3)C2=O)cc1
  i	1.3%	4%	2.2e-08	i
54	O=C(CCC1CCCC1)Nc1ccc(Br)cn1
  i	0.6%	13%	3e-08	i
55	Cc1cccc(OCC(=O)Nc2cccc(-c3nnc(-c4ccccc4)o3)c2)c1C
  i	-0.6%	u	4.4e-08	i
56	O=C(O)CC[C@@H](C(=O)O)N1C(=O)c2ccccc2C1=O
  i	4.4%[11.5 µM]	6%[11.4 µM]	3.9e-08&1.9e-08	i
57	O=C(OCc1cc2ccccc2[nH]c1=O)C1CCCCC1
  i	1.1%	6%	1e-09	i
58	Cc1noc(C)c1C(=O)N1CCC2(CCCN(c3ncccn3)C2)CC1
  i	-1.6%	-1%	2.1e-08	i
59	Cc1cccc(CNc2nc(-c3c(C)noc3C)nc3ccccc23)c1
  i	1.8%	u	1e-09	i
60	c1ccc(C(Cc2nc(-c3cccnc3)no2)c2ccccc2)cc1
  x	1.8%	u	x	x
61	CCC(=NCCN1CCNCC1)C1=C(O)CC(C)(C)CC1=O
  i	3.6%	1%	2.9e-08	i
62	CCOC(=O)c1ccc2c(c1)C1C=CCC1C(C(=O)O)N2 (centres undefined)
  i	1.3%	4%	2.1e-08	i
63	O=S(=O)(Cc1ccccc1)N1CCN(Cc2ccccc2)CC1
  i	1.3%	10%	1e-09	i
64	CCOC(=O)N1CCC(NC(=O)c2cnn3c2NC(c2ccco2)CC3C(F)(F)F)CC1 (centres undefined)
  i	-5.4%	1%	3.3e-08	i
65	COc1cc(C(=O)OCCCN2CCCN(CCCOC(=O)c3cc(OC)c(OC)c(OC)c3)CC2)cc(OC)c1OC
  i	-3.7%	u	3.2e-09&4e-08	i
66	COc1ccc(C2C(C(=O)N3CCN(C)CC3)c3ccccc3C(=O)N2C2CCCCC2)cc1 (centres undefined)
  i	0.0%	5%	1e-09	i
67	Nc1nnc(SCc2cccc(C(F)(F)F)c2)s1
  x	0.2%	7%[11.4 µM]	x	x
68	O=C(C1CCN(S(=O)(=O)c2cccnc2)CC1)N1CCN(c2ccccc2Cl)CC1
  i	0.4%	0%	4.5e-08	i
69	CCOC(=O)CC(C#N)c1c[nH]c2ccccc12 (centres undefined)
  i	0.0%	-18%	1.8e-08	i
70	O=c1cc[nH]c2cc(C(F)(F)F)ccc12
  i	0.4%	-1%	2.6e-09	i
71	O=C1CN(C(=O)c2cnccn2)c2ccccc2N1
  i	0.2%	6%	1e-09	i
72	Cc1noc(C(=O)NCc2cccnc2)c1Cl
  x	-2.4%	u	x	x
73	C=CCn1c(SCC(=O)NCC(=O)OCC)nnc1-c1cccc(OC)c1
  i	-0.5%	4%	1e-09	i
74	O=S(=O)(Nc1nccs1)c1ccc(NS(=O)(=O)c2cccs2)cc1
  i	0.4%	-3%	1e-09	i
75	O=C(CSc1nnc(-c2ccccn2)n1Cc1ccccc1)NC1CCCC1
  i	-0.3%	u	2e-09	i
76	Cc1nn(CC(=O)NCCN2CCOCC2)c(=O)c2ccccc12
  i	x	x	2.6e-08	i
77	CCN(CC)C(=O)CSc1nnc(CCNC(=O)OC(C)(C)C)o1
  i	1.1%	-1%	1e-09	i
78	COc1cc2c(cc1OC)C(c1ccc(N)cc1)=NNC(=O)C2
  x	-0.6%	9%	x	x
79	CCCCCCCCCCCCCC(=O)O[C@H](CC(=O)O)C[N+](C)(C)C
  x	2.3%	u	x	x
80	Cn1c(=O)oc2cc(S(=O)(=O)N3CCC(C(=O)N4CCN(c5ccccc5)CC4)CC3)ccc21
  x	1.7%	-4%	x	x
81	CCSc1ccccc1C(=O)Nc1cccc(OC)c1
  i	-0.7%	13%	2.3e-09	i
82	COCc1cc(=O)n2[nH]c(C)cc2n1
  i	-2.6%	2%	9.5e-09	i
83	CCOc1cc(N2CCOCC2)c(OCC)cc1NC(=O)Cc1cn2ccsc2n1
  i	-1.1%	-4%	2.9e-08	i
84	Cc1cccc(C)c1N1CCN(S(=O)(=O)c2ccc(F)cc2)CC1
  i	0.0%	u	1.9e-08	i
85	NCCNC(=S)S
  i	0.2%[11.5 µM]	0%[11.4 µM]	1e-09	i
86	CC12CCC(C(=O)NCc3ccco3)(OC1=O)C2(C)C (centres undefined)
  x	0.9%	-10%	x	x

Single entries from the list:
`O=S(=O)(Nc1nccs1)c1ccc(NS(=O)(=O)c2cccs2)cc1` – AID923: 0.4%
`COc1ccc(C2C(C(=O)N3CCN(C)CC3)c3ccccc3C(=O)N2C2CCCCC2)cc1` (centres undefined) – TSHR ag: 5%
`Cc1cccc(C)c1N1CCN(S(=O)(=O)c2ccc(F)cc2)CC1` – AID923: 0.0%
